From PubChem
Polio RdRp inh: poliovirus RdRp elongation inhibitors, primary screen, biochemical, fluorescence polarization, total intensity | Genome polyprotein (Poliovirus type 1 (strain Mahoney)), P03300 | poliovirus polymerase elongation; stronger effect = lower value | % elongation, % (compound at 16.7 µg/mL) | 0.66% of 150,000 active | AID 588519, 2011; in the data active means % elongation below about 90%; further: some results filed as inactive read as strong as hits
Target sequence (P03300 1749-2209 limits assumed): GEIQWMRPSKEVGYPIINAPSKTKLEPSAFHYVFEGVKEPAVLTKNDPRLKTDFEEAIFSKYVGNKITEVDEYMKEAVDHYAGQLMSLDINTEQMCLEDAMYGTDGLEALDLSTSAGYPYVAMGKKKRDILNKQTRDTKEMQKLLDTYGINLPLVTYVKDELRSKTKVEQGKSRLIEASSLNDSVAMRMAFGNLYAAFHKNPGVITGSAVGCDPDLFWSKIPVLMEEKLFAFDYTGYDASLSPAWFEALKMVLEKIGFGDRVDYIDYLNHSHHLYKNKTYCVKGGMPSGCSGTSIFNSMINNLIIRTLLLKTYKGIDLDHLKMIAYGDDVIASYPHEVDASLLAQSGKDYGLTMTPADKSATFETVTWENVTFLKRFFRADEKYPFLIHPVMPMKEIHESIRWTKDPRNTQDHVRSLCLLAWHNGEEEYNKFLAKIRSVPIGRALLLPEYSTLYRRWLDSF
Polio RdRp inh intensity: second read-out of Polio RdRp inh, no call of its own (marks repeat the call); % elongation; measured here: total intensity read-out; formula for this scale not given here;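 total fluorescence in place of polarization; lower means less elongation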
The depositor's hits bear a star.

SMILES	Polio RdRp inh	Polio RdRp inh intensity
COc1ccc(C(=O)NCC(c2ccc(N(C)C)cc2)N2CCc3ccccc32)cc1OC (configuration not stated)	107	109
COc1ccccc1CNC(=O)C1CCN(S(=O)(=O)c2c(C)noc2/C=C/c2c(C)cc(C)cc2C)CC1	114	108
O=C(Nc1cccc(OCc2cc(=O)n3ccccc3n2)c1)Nc1cccc(C(F)(F)F)c1	106	113
COc1ccc(C(=O)NCC(c2ccc(N(C)C)cc2)N2CCCC2)cc1 (configuration not stated)	107	109
COc1ccc(NC(=O)CSc2nc(-c3cccc(C)c3)[nH]c2-c2ccccc2)cc1OC	110	109
CCS(=O)(=O)Nc1cc(-c2cn3ccc(C)cc3n2)ccc1C	109	105
CCOC(=O)c1c(NC(=O)COc2c(C)cc(Cl)cc2Cl)sc2c1CCCC2	102	105
COc1cc(CN(C(=O)c2ccccc2Br)c2ccccn2)cc(OC)c1OC	113	109
COc1cccc(OC)c1C(=O)Nc1cccc(-c2nc3cc(C)cc(C)c3o2)c1	105	108
CCOC(=O)C1CCCN(S(=O)(=O)c2cc(-c3cc(C)no3)ccc2OC)C1 (configuration not stated)	105	102
O=C(COc1ccc(F)cc1)Nc1nnc(S(=O)(=O)N2CCCC2)s1	111	100
CCOCCCn1c(=N)c(C(=O)NCC2CCCO2)cc2c(=O)n3cc(C)ccc3nc21 (configuration not stated)	113	114
Cc1cccc(-c2noc(CNC(=O)c3ccc(C)cc3C)n2)c1	112	115
COCCNC(=O)Cn1cnc2sc(C)c(S(=O)(=O)N3CCN(c4ccccc4OC)CC3)c2c1=O	108	105
CCOc1ccccc1NC(=O)CSc1nc2c(oc3ccccc32)c(=O)n1Cc1ccco1	100	104
CCN(CC)c1ccc(C2C(C(=O)Nc3ccccc3C)=C(C)Nc3ncnn32)cc1 (configuration not stated)	110	103
Cc1ccc(-n2ncc3c(N4CCC(C(N)=O)CC4)ncnc32)cc1	109	114
Cc1nc2ccn(Cc3ccccc3)c(=O)c2cc1C(=O)N1CCN(c2ccccc2F)CC1	107	101
Cc1ccc(NC(=O)C2CCN(S(=O)(=O)c3cccc4nonc34)CC2)c(Cl)c1	105	108
COc1ccc(/C=C/C(=O)N2CCC(c3nc4ccccc4o3)CC2)cc1	106	114
CC(=O)N1CCc2cc(S(=O)(=O)NC(Cc3ccccc3)C(=O)Nc3cc(C)cc(C)c3)ccc21 (configuration not stated)	105	106
COc1ccc(C(CNC(=O)COc2ccc(C)c(C)c2)N2CCCCC2)cc1 (configuration not stated)	110	111
COc1ccc(CCNC(=O)CCCn2c(=O)c3ccccc3n(CC(=O)Nc3ccc(C)cc3Cl)c2=O)cc1OC	106	105
CC1CCc2onc(C(=O)N3CCN(c4ccc(F)cc4)CC3)c2C1 (configuration not stated)	99	107
Cc1ccc(NC(=O)Cn2ncn3c(cc4ccccc43)c2=O)cc1F	113	115

Following part:
SMILES	Polio RdRp inh	Polio RdRp inh intensity
CCOC(=O)c1cc(S(=O)(=O)NCc2ccc(Cl)cc2)[nH]n1	102	105
Cn1c(=O)oc2cc(S(=O)(=O)NC(Cc3ccccc3)C(=O)Nc3ccc(F)cc3)ccc21 (configuration not stated)	110	109
CCOc1ccc(NC(=O)Cn2c(=O)oc3cc(S(=O)(=O)N4CCCCCC4)ccc32)cc1	106	112
COc1cc(NC(=O)C2CCN(c3cnc4ccccc4n3)CC2)cc(OC)c1OC	109	111
O=C(CCC(=O)c1ccccc1)Nc1ccc(F)c(Cl)c1	102	107
Cc1c(-c2ccc(Cl)cc2)c(=O)oc2ccc(OC(=O)N3CCOCC3)cc12	108	106
CC(CNC(=O)Cc1ccc(NC(=O)N2CCSc3ncccc32)cc1)c1ccccc1 (configuration not stated)	101	107
CCOc1ccc(NC(=O)c2cc(S(=O)(=O)N3CCCCC3)c[nH]2)cc1	106	105
CC1CCCCN1c1csc2ccc(F)cc2c1=O (configuration not stated)	106	111
CCOc1ccccc1NC(=O)C(Cc1ccccc1)NS(=O)(=O)c1ccc2c(c1)oc(=O)n2C (configuration not stated)	108	107
Cc1ccc2ncc(C(=O)N3CCN(c4ccccc4F)CC3)c(=O)n2c1	103	107
COc1ccc(NC(=O)Cn2c(=O)n(CCCCCC(=O)NCc3ccc4c(c3)OCO4)c(=O)c3sccc32)cc1Cl	107	108
CCc1ccc(CNC(=O)c2ccc3c(c2)nc2n3CCOC2)cc1	105	99
COc1ccc(-c2ccc(=O)n(CC(=O)Nc3ccccc3C(F)(F)F)n2)cc1	109	114
COc1cc(Cl)c(C)cc1Nc1ncnc2c1nc1n2CCCC1	110	108
CCc1ccccc1NC(=O)Cn1c(=O)n(-c2ccc(CC(=O)NCC3CCCO3)cc2)c(=O)c2ccccc21 (configuration not stated)	104	106
CCOc1ccccc1NC(=O)C(CC)n1c(C(=O)OC)cc2occc21 (configuration not stated)	108	107
CCOc1ccc(NC(=O)Cn2nnc(C(=O)OC)c2C(=O)OC)cc1	111	110
Cc1cc(C)c2c(CC(=O)Nc3nnc(CC(C)C)s3)coc2c1	119	118
Cc1ccc(N(CC(=O)NCCc2ccc(Cl)cc2)S(=O)(=O)c2c(C)noc2C)cc1	110	106
Cc1ccccc1NC(=O)Cn1cc(C(=O)c2ccco2)c2ccccc21	106	107
COc1ccc(C2C(C(=O)Nc3ccccc3)=C(C)Nc3nc(-c4ccc(Cl)cc4)nn32)cc1 (configuration not stated)	104	107
CN1c2ccc(Cl)cc2-c2nc(SCC(=O)NCc3ccc(F)cc3)ncc2S1(=O)=O	114	110
O=C(CSc1nc2ccccc2nc1Cc1ccc(Cl)cc1)Nc1ccc2c(c1)OCO2	96	100
O=C(CCn1c(=O)c2sccc2n(Cc2cccc(F)c2)c1=O)NCc1ccc2c(c1)OCO2	107	113

Given with two lines to a compound: 18 of the compounds above.
Each structure is followed by: Polio RdRp inh	Polio RdRp inh intensity
CCOC(=O)c1cc(S(=O)(=O)NCc2ccc(Cl)cc2)[nH]n1
  102	105
Cn1c(=O)oc2cc(S(=O)(=O)NC(Cc3ccccc3)C(=O)Nc3ccc(F)cc3)ccc21 (configuration not stated)
  110	109
CCOc1ccc(NC(=O)Cn2c(=O)oc3cc(S(=O)(=O)N4CCCCCC4)ccc32)cc1
  106	112
COc1cc(NC(=O)C2CCN(c3cnc4ccccc4n3)CC2)cc(OC)c1OC
  109	111
O=C(CCC(=O)c1ccccc1)Nc1ccc(F)c(Cl)c1
  102	107
Cc1c(-c2ccc(Cl)cc2)c(=O)oc2ccc(OC(=O)N3CCOCC3)cc12
  108	106
CC(CNC(=O)Cc1ccc(NC(=O)N2CCSc3ncccc32)cc1)c1ccccc1 (configuration not stated)
  101	107
CCOc1ccc(NC(=O)c2cc(S(=O)(=O)N3CCCCC3)c[nH]2)cc1
  106	105
CC1CCCCN1c1csc2ccc(F)cc2c1=O (configuration not stated)
  106	111
CCOc1ccccc1NC(=O)C(Cc1ccccc1)NS(=O)(=O)c1ccc2c(c1)oc(=O)n2C (configuration not stated)
  108	107
Cc1ccc2ncc(C(=O)N3CCN(c4ccccc4F)CC3)c(=O)n2c1
  103	107
COc1ccc(NC(=O)Cn2c(=O)n(CCCCCC(=O)NCc3ccc4c(c3)OCO4)c(=O)c3sccc32)cc1Cl
  107	108
CCc1ccc(CNC(=O)c2ccc3c(c2)nc2n3CCOC2)cc1
  105	99
COc1ccc(-c2ccc(=O)n(CC(=O)Nc3ccccc3C(F)(F)F)n2)cc1
  109	114
COc1cc(Cl)c(C)cc1Nc1ncnc2c1nc1n2CCCC1
  110	108
CCc1ccccc1NC(=O)Cn1c(=O)n(-c2ccc(CC(=O)NCC3CCCO3)cc2)c(=O)c2ccccc21 (configuration not stated)
  104	106
CCOc1ccccc1NC(=O)C(CC)n1c(C(=O)OC)cc2occc21 (configuration not stated)
  108	107
CCOc1ccc(NC(=O)Cn2nnc(C(=O)OC)c2C(=O)OC)cc1
  111	110

Next section.
SMILES	Polio RdRp inh	Polio RdRp inh intensity
COc1ccc(CCNC(=O)c2ccc3[nH]c(C)c(C)c3c2)cc1OC	105	104
O=C(NCc1ccc(Cl)cc1)c1cc2cccc3c2n1CCS3	100	110
CCOc1ccc(N(C)C(=O)c2oc(=O)c3ccccc3c2-c2ccccc2)cc1	106	110
COc1ccc(NC(=O)C2CCCN(S(=O)(=O)c3cccs3)C2)cc1 (configuration not stated)	111	111
Cn1c(=O)c2c(SCC(=O)Nc3ccc(F)cc3F)nc(C3CCCC3)nc2n(C)c1=O	104	106
O=C(Nc1cccc(-c2nc3ncccc3o2)c1)c1ccc(-c2cccc(Cl)c2Cl)o1	101	101
CCN1CCc2c(sc(-n3cccc3)c2C(CCC(C)C)NC(=O)NCCC(=O)OC)C1 (configuration not stated)	115	126
COc1ccc(NC(=O)c2sc3nc(-c4ccc(OC)cc4)cc(C(F)(F)F)c3c2N)cc1	83	234
COc1ccc(C)cc1NC(=O)c1cc(S(=O)(=O)N2CCOCC2)cn1C	100	100
CCc1cccc(C)c1NC(=O)CN(C)S(=O)(=O)c1cccc2nsnc12	107	109
COc1ccc(NC(=O)c2ccc(NC(=O)CCS(=O)(=O)c3cccs3)cc2)cc1	105	113
CCc1ccc(Sc2cc(C(=O)NCc3cccc(OC)c3)c3ccccc3n2)cc1	112	116
COc1cccc(COC(=O)c2ccc(-c3nnn(Cc4ccccc4)n3)cc2)c1	107	109
CC(=O)c1cccc(NC(=O)c2ccc(Cl)c(S(=O)(=O)N3CCOCC3)c2)c1	104	109
Cc1ccc(CNC(=O)Cn2c3ncccc3c(=O)n2-c2ccccc2)cc1	101	104
Cc1ccc(C)c(NC(=O)N2CCc3cc(S(=O)(=O)N4CCC(C)CC4)ccc32)c1	105	108
CCNC(=O)CCSc1nnc(-c2ccc(O)cc2)o1	100	99
Cc1cc(C)cc(NC(=O)c2sc3nc(-c4ccccc4)cn3c2C)c1	109	104
Cc1noc(Cn2c(=O)c3ccccc3n(CC(=O)Nc3cc(Cl)ccc3C)c2=O)n1	112	112
CC1=C(C(=O)OCc2ccc(C)cc2)C(c2ccccc2F)CC(=O)N1 (configuration not stated)	104	107
Cn1c(=O)c(=O)n(C)c2cc(S(=O)(=O)N3CCCC3C(=O)Nc3ccc(F)cc3)ccc21 (configuration not stated)	100	104
COC(=O)c1cc2sccc2n1CC(=O)Nc1ccc(OC)c(OC)c1	103	109
COc1ccc(-c2cc3nc(C)c(CCC(=O)N4CCN(c5ccccc5)CC4)c(C)n3n2)c(OC)c1	112	113
COc1cc(NC(=O)c2ccc(-c3nc(CSc4ccccc4)c(C)o3)cc2)cc(OC)c1	107	105
COc1cccc(NC(=O)c2ccc3c(c2)CCN3S(C)(=O)=O)c1	106	110

(further entries)
SMILES	Polio RdRp inh	Polio RdRp inh intensity
COc1ccc(S(=O)(=O)c2nnn(-c3ccc(C(C)C)cc3)c2C)cc1	107	112
CSc1ncc(C(=O)Nc2ccccc2C(F)(F)F)c(-c2ccccc2)n1	112	104
O=c1cc(CSc2ncn[nH]2)[nH]c2ccc(F)cc12	109	107
CCCSc1nnc2c(n1)OC(c1ccc(Br)s1)Nc1ccccc1-2 (configuration not stated)	103	105
Cc1cccc(-n2ncc(C(=O)N3CCc4ccccc4C3)c2C2CCN(C(=O)OC(C)(C)C)CC2)c1	102	96
COc1ccc(N(CC(=O)N2CCN(c3ccc(F)cc3)CC2)S(=O)(=O)c2c(C)nn(C)c2C)cc1	106	106
CCCCCn1c(=O)[nH]c2cc(C(=O)NCc3ccccc3)ccc2c1=O	106	106
Cc1cc(OCC(=O)N(Cc2ccc(N(C)C)cc2)C2CCS(=O)(=O)C2)cc(C)c1Cl (configuration not stated)	103	98
COc1cc(NC(=O)N2CCC3(CC2)Nc2ccccc2-n2cccc23)cc(OC)c1OC	100	107
Cc1csc2nc(COC(=O)CNC(=O)c3ccc(F)cc3)cc(=O)n12	109	115
CC(C)c1ccc(NC(=O)C2CCCN(S(=O)(=O)c3ccc(Br)s3)C2)cc1 (configuration not stated)	112	111
CCOC(=O)Cn1c(=O)oc2cc(S(=O)(=O)N3CCN(c4cccc(C)c4)C(C)C3)ccc21 (configuration not stated)	108	109
Cc1cc(C)c2oc(C(=O)Nc3c(C(=O)c4ccccc4)oc4ccccc34)cc(=O)c2c1	115	117
Cc1cc(-c2ccc(C)c(S(=O)(=O)NC3CCCCC3)c2)on1	108	104
Cc1sc2c(c1C)c(=O)n(-c1ccc(Cl)cc1)c(=O)n2Cc1c(F)cccc1Cl	105	111
NC(=O)C1CCN(c2csc3ccc(F)cc3c2=O)CC1	110	113
Cc1cccc(-c2nc3c4ccccc4nc(NCc4ccccc4Cl)n3n2)c1	101	101
O=C(CSc1nc(-c2ccc(F)cc2)cc(C(F)(F)F)n1)NCc1ccccc1	104	107
Cc1cc2nn(-c3ccc(Cl)cc3)nc2cc1NC(=O)C(C)C	108	104
O=c1c(=O)n(-c2ccc(F)c(F)c2)ccn1Cc1ccc(F)cc1Cl	106	110
COc1ccccc1-c1cc(C(=O)NCCc2ccccc2)no1	108	109
CCOC(=O)c1ccccc1NC(=O)NCc1cccn1Cc1ccc(F)cc1	110	108
CCn1c(C)c(C)c2cc(C(=O)NCCCN3CCCCC3C)ccc21 (configuration not stated)	106	116
N#Cc1c(C(F)(F)F)cc(-c2cccs2)nc1SCc1ccccc1F	108	109
COc1cc2c(cc1NC(=O)COc1ccc(Br)cc1C)oc1ccccc12	108	103

Continuation.
SMILES	Polio RdRp inh	Polio RdRp inh intensity
COC(=O)CCN(c1ccccc1)C(CNS(=O)(=O)c1ccccc1)c1ccccc1 (configuration not stated)	113	105
CCC(=O)N1c2ccc(S(=O)(=O)N3CCC(C)CC3)cc2CC1C (configuration not stated)	112	110
COc1cccc(C(=O)Nc2ccc(-c3cn4cccnc4n3)cc2)c1OC	104	104
Cc1ccc(Nc2c(-c3cccnc3)nc3ccc(Cl)cn23)cc1	115	114
O=C(NCC(c1ccc2c(c1)OCO2)N1CCOCC1)c1cccc(Cl)c1 (configuration not stated)	109	109
CC(C)c1ccc(OCC(=O)Nc2ccc(S(=O)(=O)Nc3ncccn3)cc2)cc1	107	108
CCOc1ccc(-c2nc(SCC(=O)Nc3ccc4c(c3)OCO4)c(-c3ccc(F)cc3)[nH]2)cc1	112	112
Cc1cc(N2CCC(C(=O)N(CC(C)C)CC(C)C)CC2)n2nc(C)c(-c3ccc(Cl)cc3)c2n1	111	112
COc1ccc(NC(=O)CSc2nc3nc(C)cc(C)n3n2)cc1	103	107

Not all compounds are listed (hit frequency here may not be typical).
